Rango release inh: inhibitors of RanGTP-induced Rango-importin beta complex dissociation; O95149+P62826; Biochemical FRET Rango-importin beta, RanGTP-induced dissociation; Potency, µM (series often up to 46.1 µM), for inactives: at the highest dose activity change, negative = inhibition; hit rate 0.071% among 340,000; active means falling FRET ratio curve, often poorly fitted, with flat reads before Ran was added; inconclusive means other falling curves, or compound fluorescence or quenching; inactive means flat or rising ratio curve;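 note: potency is the fitted concentration of half-maximal effect; % of control where 0% means no effect; nearly all actives have a fitted effect of over 45% in size; -100% = wells without RanGTP and RCC1; the record marks most hits as doubtful in a second field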
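Compounds sat 5 min at room temperature with 0.1 uM Rango biosensor plus 0.25 uM importin beta, then FRET pre-read. RanGTP-RCC1 (0.6 uM Ran, 2mM GTP, 0.2 uM RCC1) added for 45 min, and the CFP/YFP post-read measured blocked complex dissociation.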
GLA inh pH 4.5: blocks human alpha-galactosidase A at pH 4.5; purified enzyme, 4-MU-alpha-Gal fluorescence, pH 4.5; P06280; activity change, negative = inhibition, % at 105 µM; 230,000 tested, under 10 active; inconclusive = small, poorly fitted or top-dose-only inhibition, or a rising curve; inactive = flat fitted curve, though single readings scatter; no compound was filed as active;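 note: 0% = full activity with enzyme and -100% = basal without enzyme; dose as in the result columns while the protocol names 77 µM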
Target sequence (P06280 whole entry, looked up): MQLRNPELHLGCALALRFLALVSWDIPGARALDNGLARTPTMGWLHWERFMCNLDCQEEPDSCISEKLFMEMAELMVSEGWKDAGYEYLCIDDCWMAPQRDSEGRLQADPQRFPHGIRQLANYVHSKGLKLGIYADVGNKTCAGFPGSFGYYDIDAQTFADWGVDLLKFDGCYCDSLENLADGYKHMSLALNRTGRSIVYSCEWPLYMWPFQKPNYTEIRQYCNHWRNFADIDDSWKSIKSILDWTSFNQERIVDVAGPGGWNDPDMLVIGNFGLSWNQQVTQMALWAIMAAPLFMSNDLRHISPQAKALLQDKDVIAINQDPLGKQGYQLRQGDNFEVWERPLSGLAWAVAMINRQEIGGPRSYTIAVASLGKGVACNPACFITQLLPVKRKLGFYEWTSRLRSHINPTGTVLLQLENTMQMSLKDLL
Rango-impB inh: inhibitors of Rango-importin beta complex formation; hit rate 0.031% among 340,000; Potency, µM (highest dose often 92.2 µM), inactives show top-dose inhibition of complex formation; AID 540263; Rango CFP/YFP FRET sensor + importin beta, 45 min; Q14974; active = rising FRET ratio curve, often small or poorly fitted; inconclusive = mostly compound fluorescence or quenching in the first reads; inactive = flat curves in all reads;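 note: potency is the fitted concentration of half-maximal effect; 0% = DMSO wells and 100% = buffer wells lacking importin beta; nearly all actives have a fitted effect of over 15% in size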
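FRET biosensor (snurportin 1 IBB flanked by EYFP and cerulean), 50 nM, with compound 5 min, then 0.125 microM importin beta in PBS, 1 mM DTT, 0.02% Tween-20, 0.1% BSA. CFP/YFP ratio read after 45 min at room temperature; pre-read flags interference.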
miR-21 reporter: raises the signal of a miR-21 reporter. HeLa miR-21 FLuc reporter, luciferase, 48 h. Potency, µM (top dose mostly 38.3 µM), without a hit: top-dose reporter change, positive = more light. AID 2288. 340,000 tested, under 10 active; active = well fitted rising curve with a large enough effect; inconclusive = small, poorly fitted or top-dose-only effect; inactive = no such curve, though single readings can be large or run the other way;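 note: % of control where 0% means no effect; miR-21 action dims this reporter so a rising signal means less miR-21 action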
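HeLa miR-21-FLuc reporter line, endogenous miR-21; 2000 cells/well in DMEM/10% FBS; compound titration up to ~40uM final, 48 h, 37 degree Celsius; luciferase detection reagent, 15 min lysis, CCD luminescence.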
* marks the source's active call; other numbers are inactive results; ? = inconclusive; nt = no result given; [ ] = remark or other dose.

SMILES | Rango release inh | GLA inh pH 4.5 | Rango-impB inh | miR-21 reporter
O=C(C1CCN(c2nc3nonc3nc2N2CCCCC2)CC1)N1CCOCC1 | 6% | -4 | -4.9% | 2%
COc1ccc(/C=N/NC(=O)CCC(=O)Nc2ccccc2)cc1OC | -11% | 9 | 1.8% | -14%
CCOC(=O)[C@@H]1[C@H]2COc3cc(OC)ccc3[C@H]2N2C(=O)N(c3cccc(C)c3)C(=O)[C@]12C | 13% | nt | 3.8% | nt
OC(COc1ccc(CNCCc2ccc(C(F)(F)F)cc2)cc1)CN1CCCCC1 (stereo not drawn) | -18% | -5 | -1.9% | ?
CC(=O)c1cc(-c2ccc(F)cc2)n(CCC(=O)Nc2cccc(C)n2)c1C | 10% | -13 | -1.8% | -1%
COc1ccc(-c2cc3ncc(-c4ccccc4)c(N)n3n2)cc1 | -8% | 0 | -2.9% | -26%
CC(C)NC(=O)NC(=O)CSc1nncs1 | 21% | -4 | -0.1% | 0%
COc1ccc(OCC(O)CNC(=O)Nc2ccc(F)cc2)cc1 (stereo not drawn) | -7% | -10 | -2.4% | -1%
COc1ccc2[nH]c(=O)c(CN(CC3CCCO3)C(=S)Nc3cccc(C)c3)cc2c1 (stereo not drawn) | 1% | -10 | -0.4% | 1%
Cc1cc(C)n(-c2ccc(C(=O)NCc3ccc4c(c3)OCO4)cc2)n1 | 1% | 0 | -3.2% | -5%
CC(=O)Nc1cccc(Oc2ccc(-c3noc(C)n3)cc2)c1 | 2% | -1 | -2.1% | -21%
COc1ccc(OC)c(CNC(=O)C2CCCN(S(=O)(=O)N3CC(C)CC(C)C3)C2)c1 (stereo not drawn) | -3% | nt | 0.1% | 2%
O=c1c2ccccc2nc(SCc2nc3ccccc3s2)n1Cc1ccco1 | -8% | -3 | 6.6% | -4%
NC(=O)C(c1ccccc1)C1CCCC1 (stereo not drawn) | 20% | 5 | -0.4% | -2%
Cc1ccc(Cn2c(SCC(N)=O)nc3c2c(=O)n(C)c(=O)n3C)cc1 | 2% | 3 | 0.7% | -1%
O=C(Cc1ccccc1[N+](=O)[O-])Nc1ccc2c(c1)OCCO2 | 18% | 11 | -6.4% | -57%
CCCc1cc(=O)n2nc(N3CCC(C(=O)Nc4cccc(C(C)=O)c4)CC3)sc2n1 | -2% | nt | -1.6% | 2%
CN1CCN(C(=S)c2ccc(OCC(=O)Nc3cccc(C(F)(F)F)c3)cc2)CC1 | 2% | -13 | 3.1% | 14%
CCOC(=O)C1CCN(C(=O)c2sc3ncnc(N4CCC(C)CC4)c3c2C)CC1 | -8% | -4 | 3.4% | -6%
Cc1cc(=O)n2nc(N3CCC(C(=O)NCC(C)c4ccccc4)CC3)sc2n1 (stereo not drawn) | 4% | nt | -0.9% | -3%
C/C(=N/NS(=O)(=O)c1ccc(CC(C)C)cc1)c1ccncc1 | 0% | nt | -2.0% | 13%
COc1ccc(CC(=O)NNC(=O)c2ccoc2C)cc1OC | -14% | -20 | 10.0% | 1%
Cn1cnc2ccc([N+](=O)[O-])cc2c1=O | 6% | 4 | 0.1% | 3%
Cc1cccc(N(CC(=O)NC(C)(C)C)C(=O)CCC(=O)Nc2nccs2)c1 | 3% | nt | 0.7% | -1%
CCN1C(=O)N(C)C2(c3ccccc3)N(C)C(=O)N(C)C12c1ccccc1 (stereo not drawn) | -2% | -3 | 2.0% | 0%

Compound profiles, as listed above:
Entry for CCOC(=O)[C@@H]1[C@H]2COc3cc(OC)ccc3[C@H]2N2C(=O)N(c3cccc(C)c3)C(=O)[C@]12C → Rango release inh: 13%; GLA inh pH 4.5: nt; Rango-impB inh: 3.8%; miR-21 reporter: nt
Entry for CC(C)NC(=O)NC(=O)CSc1nncs1 → Rango release inh: 21%; GLA inh pH 4.5: -4; Rango-impB inh: -0.1%; miR-21 reporter: 0%

Other entries follow:
SMILES | Rango release inh | GLA inh pH 4.5 | Rango-impB inh | miR-21 reporter
COC(=O)c1c(-c2ccc(OC)c(OC)c2)csc1N | 1% | -6 | -3.1% | -1%
Cc1c(C)n(CCC#N)c2ccc(Cl)cc12 | -9% | 2 | -4.3% | -9%
CC(C)C(c1nnnn1C1CCCCC1)N1CCCc2ccccc21 (stereo not drawn) | -14% | -4 | 3.7% | -9%
CCOc1cc(C(=O)OCC(=O)Nc2ccc(F)cc2Cl)ccc1OCC(=O)N1CCOCC1 | -15% | nt | -1.4% | nt
Cc1ccc(OCCCC(=O)Nc2ccc(Br)cc2)cc1 | 0% | 0 | -4.4% | -5%
CN(C)c1ccc(C(C(=O)NCC2CCCO2)N(C(=O)c2snc(C(N)=O)c2N)c2ccccc2)cc1 (stereo not drawn) | -13% | nt | 0.1% | 8%
Cc1ccc(CCNC(=O)CN2CCN(Cc3ccccc3F)C2=O)cc1 | -22% | -3 | 8.4% | -1%
CC(=O)c1ccccc1NC(=O)CCNC(=O)c1ccco1 | 11% | nt | 0.0% | -15%
S=c1[nH]c2ccccc2o1 | 1% | 10 | ? | -6%
CC(=O)N1CCN(Cc2nc(C(c3ccccc3)c3ccccc3)no2)CC1 | 3% | -4 | -3.0% | 5%
CCOC(=O)N1CCC(NC(=S)Nc2ccc3nc(N4CCN(CC)CC4)cc(C)c3c2)CC1 | -1% | 2 | -6.5% | 13%
CN(CC(=O)Nc1cccc2ccccc12)C(=O)c1ccc(F)cc1F | -4% | nt | -0.6% | nt
CCCn1c(SCC(=O)NNC(=O)c2ccc(C)cc2)nnc1C(C)C | 2% | nt | 0.5% | -1%
Cn1ccnc1Sc1nnnn1-c1ccccc1 | 23% | 4 | ? | -2%
O=C(CN1CCc2cc3c(cc2C1)OCCCO3)Nc1ccc(F)cc1 | 6% | nt | -4.2% | 6%
CCCCC(=O)NC(N1CCCCC1)C(Cl)(Cl)Cl (stereo not drawn) | -13% | 4 | -4.6% | 1%
Cc1nc(NC(=O)COC(=O)C2CC2C)c(Cl)cc1Cl (stereo not drawn) | -4% | nt | 0.2% | nt
COc1ccccc1-c1nc2n(n1)C(c1ccccc1Cl)C(C(N)=O)=C(C)N2 (stereo not drawn) | -18% | -1 | -4.3% | -2%
O=C(Nc1nc(-c2ccc(-c3ccccc3)cc2)cs1)c1cc([N+](=O)[O-])ccc1N1CCOCC1 | -2% | -4 | 0.5% | -8%
COc1cccc(C(=O)COC(=O)C2CC(=O)N(c3ccc(Oc4ccccc4OC)cc3)C2)c1 (stereo not drawn) | 0% | nt | 4.2% | 2%
Cc1ccc(C(=O)NCC(=O)Nc2ccc3c(c2)OCCO3)cc1 | -5% | nt | 3.0% | nt
Cc1ccccc1Nc1c(-c2ccncc2)nc2ccc(Cl)cn12 | -3% | -3 | ? | ?
C#CCn1c(S(=O)(=O)Cc2ccc(F)cc2)nc(-c2ccccc2)c1-c1ccccc1 | 0% | -1 | -0.5% | 24%
COc1nc(Nc2ccccc2F)nc(OC)n1 | 2% | nt | 0.0% | -40%
Cc1ccccc1-n1c(SCC(=O)Nc2ccc3c(c2)OCO3)nnc1-c1ccccn1 | 4% | -16 | 1.2% | 14%

7 compounds from above, arranged by the value under Rango release inh, smallest number first.
| mol | Rango release inh |
| --- | --- |
| CC(C)C(c1nnnn1C1CCCCC1)N1CCCc2ccccc21 (stereo not drawn) | -14% |
| CN(CC(=O)Nc1cccc2ccccc12)C(=O)c1ccc(F)cc1F | -4% |
| Cc1ccccc1Nc1c(-c2ccncc2)nc2ccc(Cl)cn12 | -3% |
| Cc1ccc(OCCCC(=O)Nc2ccc(Br)cc2)cc1 | 0% |
| S=c1[nH]c2ccccc2o1 | 1% |
| COc1nc(Nc2ccccc2F)nc(OC)n1 | 2% |
| CC(=O)N1CCN(Cc2nc(C(c3ccccc3)c3ccccc3)no2)CC1 | 3% |

Carrying on:
SMILES | Rango release inh | GLA inh pH 4.5 | Rango-impB inh | miR-21 reporter
CC1(C)CC(=O)C2=C(C1)N(c1ccccc1)C(N)=C(C#N)C2c1cccnc1 (stereo not drawn) | ? | -2 | ? | -4%
CCCOc1c(OC)cccc1C1CC(=O)Nc2cc(OC)c(OC)c(OC)c21 (stereo not drawn) | 7% | -5 | -4.1% | 5%
O=C(CN1C(=O)NC2(CCCCC2)C1=O)NCc1cccs1 | 1% | -3 | 0.7% | -7%
O=C1CCCCCC1C1(O)C(=O)Nc2ccccc21 (stereo not drawn) | 3% | -10 | -0.1% | -6%
COc1ccccc1OCc1nnc(SCC(=O)NCc2ccco2)n1-c1ccccc1 | 15% | 3 | 0.5% | -11%
Cc1cccn2c(=O)c3cc(C(=O)NCCc4ccccc4)c(=N)n(Cc4ccco4)c3nc12 | ? | nt | ? | 8%
CCc1ccccc1OCC(=O)Nc1cccc(S(=O)(=O)NCc2ccco2)c1 | 2% | nt | -1.3% | nt
O=C(O)CCSC1CC(=O)N(c2ccccc2)C1=O (stereo not drawn) | 1% | nt | -6.2% | -1%
Cc1ccc(C2=NN3C(C2)c2ccccc2OC32C(=O)Nc3ccccc32)cc1 (stereo not drawn) | ? | -3 | -2.8% | -43%
CN1CCN(S(=O)(=O)c2ccc(N(C)Cc3c(F)cccc3Cl)nc2)CC1 | -2% | nt | -2.4% | nt
COc1ccc(-n2ncc3c2CC(C)(C)CC3NC(=O)CCc2c(C)nn(C)c2C)cc1 (stereo not drawn) | 16% | nt | 5.4% | -2%
CCCCOC(=O)C1=C(C)Nc2ncnn2C1c1ccc(OC)c(OC)c1OC (stereo not drawn) | 19% | 3 | -1.1% | -3%
CCOC(=O)CCSCC(=O)N1N=C(c2cccs2)CC1c1ccc(C)cc1 (stereo not drawn) | -10% | -2 | 2.9% | -14%
CC(=O)c1ccc(N2C(=O)[C@@H]3[C@H](C2=O)[C@H]2c4ccccc4C=NN2[C@@H]3C(C)=O)cc1 | -7% | -5 | 2.7% | -10%
CC(C)Oc1ccc(C(CC(=O)NCCCN(C)C)c2ccc(F)cc2)cc1 (stereo not drawn) | 11% | 0 | 2.5% | 3%
C#CCOCCOCCOCCNc1nc(N2CCN(C(=O)[C@H]([C@@H](C)CC)n3cc([C@@H](N)Cc4ccc(O)cc4)nn3)CC2)nc(N2CCN(C(=O)[C@H](CCCCN)n3cc([C@@H](N)C(C)CC)nn3)CC2)n1 (stereo partly drawn) | -13% | 6 | 7.6% | 1%
c1ccc(Cn2ccc(-c3cnc(-c4ccccc4)s3)n2)cc1 | 0% | 0 | 7.1% | -24%
CS(=O)(=O)N(CC(=O)Nc1cccc(F)c1)c1cccc([N+](=O)[O-])c1 | 10% | -2 | -1.7% | -10%
COc1cc2[nH]c3c(N4CCN(c5ccccn5)CC4)ncnc3c2cc1OC | 1% | -6 | -0.1% | 19%
CCc1ccc(OCC(=O)NC(NC(=S)Nc2ccc(C)cc2C)C(Cl)(Cl)Cl)cc1 (stereo not drawn) | -3% | 7 | -2.1% | 15%
O=C(CNc1ccccc1C(=O)O)c1ccccc1 | -10% | -3 | ? | -26%
COc1ccc(C(=O)OCC(=O)NC(=O)NC2CCCC2)cc1[N+](=O)[O-] | 23% | nt | -3.7% | nt
CCOc1cccc2c1OC1(C)CC2NC(=O)N1Cc1ccccc1 (stereo not drawn) | 1% | -8[21.1 µM] | 1.0% | 1%
COc1ccccc1CNC(=O)CN(CCc1ccccc1)S(C)(=O)=O | 0% | -7 | 0.3% | -1%
CC(C)N(C(=O)COc1ccc(Br)cc1Cl)C(C)C | 6% | -1 | -2.1% | -1%
COc1ccccc1N1CCN(C(=O)c2ccc3ncsc3c2)CC1 | 7% | nt | -0.3% | nt
COc1ccccc1CNC(=O)Cn1c(=O)oc2cc(Cl)ccc21 | -1% | -11 | -0.5% | -13%

An excerpt of these results, comma-delimited:
smiles,Rango release inh,GLA inh pH 4.5,Rango-impB inh,miR-21 reporter
S=c1[nH]c2ccccc2o1,1%,10,?,-6%
CC(=O)N1CCN(Cc2nc(C(c3ccccc3)c3ccccc3)no2)CC1,3%,-4,-3.0%,5%
CCOC(=O)N1CCC(NC(=S)Nc2ccc3nc(N4CCN(CC)CC4)cc(C)c3c2)CC1,-1%,2,-6.5%,13%

Screens from PubChem BioAssay.

These rows are one share of the data, so the mix of outcomes need not match the whole.
